Rab2 wt GTP: changes GTP binding to wildtype dog Rab2A, up or down | P61105 | GST-Rab2 wt beads, Bodipy-GTP binding, flow cytometry | GTP binding activity, % at 10 µM | 190,000 tested, 0.19% active | AID 760;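 active means GTP binding activity at least 20 points away from 100%, either lowered or raised; inconclusive means signal likely due to the compound's own green fluorescence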;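 further: 0% = beads with excess unlabeled GTP and 100% = no-compound control corrected for plate trend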
Avidin bead fluor: avidin bead compound fluorescence profile | Avidin beads, compound fluorescence 488/530 nm, flow cytometry; stronger effect = higher value | fluorescence (KMESF) at 10 µM | 220,000 tested, 0.38% active | AID 1775; in the data active means fluorescence above about 47; further: inactives centre near 10
Rab7 wt modul: alters GTP binding to wildtype dog Rab7. GST-Rab7 beads, fluorescent GTP binding, flow cytometry; actives lie on both sides; untreated = 100%, excess cold GTP = 0%. GTP binding activity (percent of control), % at 10 µM. 190,000 tested, 0.055% active. AID 758;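 active means fluorescent GTP binding to Rab7 beads changed by at least 20 points from the 100% baseline, either direction, mostly lower; inconclusive means compound itself probably fluorescent, or too few beads counted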;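 further: median green fluorescence of bound Bodipy-FL-GTP per Rab7 bead population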
Cdc42 wt: human Cdc42 wildtype GTP binding change, either direction | P60953 | GST-Cdc42 beads, Bodipy-GTP binding, flow cytometry; actives lie on both sides | percent activity (GTP binding), % at 10 µM | 190,000 tested, 0.2% active;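 active means percent activity GTP binding at least 20 points away from the 100% baseline, either down as inhibitor or up as activator; inconclusive means compound flagged as likely green fluorescent from well-wide comparison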;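 further: median bead fluorescence of bound Bodipy-FL-GTP at 100 nM; 0% = excess unlabeled GTP control and 100% = no compound control; below 100% means less GTP binding so inhibitor and above means activator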
Target sequence (P60953 whole entry, looked up): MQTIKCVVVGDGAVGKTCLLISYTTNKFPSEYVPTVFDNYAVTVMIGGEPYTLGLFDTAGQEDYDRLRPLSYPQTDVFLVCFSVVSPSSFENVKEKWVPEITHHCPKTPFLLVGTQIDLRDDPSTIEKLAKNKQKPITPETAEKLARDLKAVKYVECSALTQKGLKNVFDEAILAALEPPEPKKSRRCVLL
Rac1 wt modul: modulators of human Rac1 wildtype GTP binding. P63000. GST-Rac1 beads, fluorescent GTP binding, flow cytometry; actives lie on both sides; 0 = cold GTP competed, 100 = untreated. GTP binding activity (% of control), % at 10 µM. 190,000 tested, 0.27% active. AID 757;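 active means GTP binding activity at least 20 points away from the 100% control level, either lower or higher; inconclusive means compound flagged as likely green fluorescent, judged across all proteins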
Rac1 mut GTP: human Rac1 activated mutant GTP binding change. GST-Rac1 activated beads, fluorescent GTP binding, flow cytometry; actives lie on both sides; 100% means binding = to untreated wells. percent activity (GTP binding), % at 10 µM. 190,000 tested, 0.11% active;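 active means GTP binding at least 20 percentage points away from the 100% baseline, in either direction, so actives lie on both sides; inconclusive means Compound likely fluorescent itself, or too few beads counted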
Pf gamet viab: kills late stage P. falciparum gametocytes | P. falciparum stage V gametocytes, ATP luminescence, 24 h | inhibition, % at 10.9 µM | 150,000 tested, 0.065% active;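 active means inhibition above the mean plus 3 SD of compounds within the control limits, set per campaign, cut at about 38% in these data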;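 further: 0% = DMSO wells and 100% = medium only without gametocytes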
HRas wt GTP: modulators of GTP binding to human HRas wildtype; AID 759; P01112; GST-Ras wt beads, Bodipy-FL-GTP binding, flow cytometry; actives lie on both sides; 190,000 tested, 0.14% active; GTP binding activity, % at 10 µM;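 active means GTP binding activity at least 20% away from the 100% baseline, either lowered as inhibitor or raised as activator; inconclusive means flagged as likely green fluorescent, judged across all proteins in the well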;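 further: 0% = unlabeled GTP competition control and 100% = no-compound control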
Target sequence (P01112 whole entry, looked up): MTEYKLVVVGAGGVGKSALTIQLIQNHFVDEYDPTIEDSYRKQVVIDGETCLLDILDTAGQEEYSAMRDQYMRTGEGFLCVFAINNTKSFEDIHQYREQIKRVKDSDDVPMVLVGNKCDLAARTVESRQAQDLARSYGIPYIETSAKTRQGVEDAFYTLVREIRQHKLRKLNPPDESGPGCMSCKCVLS
* hit, by the source's call; ? = inconclusive; nt = no result given. Some of the compounds tested, so the mix of outcomes need not match the whole.

SMILES	Rab2 wt GTP	Avidin bead fluor	Rab7 wt modul	Cdc42 wt	Rac1 wt modul	Rac1 mut GTP	Pf gamet viab	HRas wt GTP
CSCC[C@@H](C(=O)O)N1Cc2ccccc2C1=O	103.0	8	102.0	106.0	110.0	104.0	nt	106.0
NN=C1c2cc([N+](=O)[O-])ccc2-c2ccc([N+](=O)[O-])cc21	97.0	10	106.0	97.0	98.0	97.0	nt	102.0
O=C(NCc1cccs1)C1CCN(S(=O)(=O)c2ccccc2F)CC1	nt	5	nt	nt	nt	nt	8.6	nt
Cc1cc(C)c(S(=O)(=O)Nc2cccnc2)c(C)c1	102.0	9	101.0	98.0	104.0	97.0	nt	100.0
CC(=O)Nc1ccc(/C=N/Nc2ccc(C(=O)c3c(C)cc4ccccn34)cc2[N+](=O)[O-])cc1	nt	6	nt	nt	nt	nt	18.9	nt
Cc1nc(N2CCN(C(=O)c3ccco3)CC2)c2c3c(sc2n1)CCC3	87.0	5	87.0	89.0	85.0	89.0	-17.6	88.0
Cc1nn(-c2ccc(Cl)cc2)c2[nH]c(=O)c(CNCc3ccc4c(c3)OCO4)cc12	104.0	15	99.0	103.0	100.0	101.0	-2.0	102.0
N#C/C(=C\c1ccc(-c2ccccc2Cl)o1)C(=O)Nc1nc2ccccc2s1	91.0	3	97.0	88.0	92.0	90.0	-2.3	93.0
Nc1ncnc(Nc2ccc(F)cc2)n1	100.0	15	99.0	99.0	103.0	102.0	2.7	102.0
S=c1[nH]nc(-c2ccccc2Cl)n1Cc1ccccc1	96.0	13	96.0	96.0	99.0	93.0	12.3	95.0
CNC(=O)CSc1nnc(-c2ccco2)n1-c1ccc(C)cc1	100.0	6	101.0	99.0	106.0	100.0	-14.6	101.0
CSc1nc(-c2ccco2)nn1C(=O)c1ccccc1Cl	nt	8	nt	nt	nt	nt	16.7	nt
Cc1c(/C=N/NC(=O)CNc2ccccc2)c2ccccn2c1C(=O)c1ccncc1	?	1	?	?	?	?	-14.1	?
c1cc(-c2nnc(-c3ccncc3)o2)ccn1	94.0	10	94.0	98.0	97.0	96.0	8.2	95.0
CCCC(=O)Nc1nc2c(OC)ccc(OC)c2s1	96.0	6	95.0	94.0	95.0	97.0	nt	94.0
COc1nc(NCCc2ccc(OC)c(OC)c2)nc(OC)n1	102.0	7	99.0	103.0	104.0	99.0	11.2	102.0
CCOc1ccc(NC(=O)CSc2nnc(Cn3cnc([N+](=O)[O-])n3)n2CC)cc1	99.0	10	95.0	101.0	100.0	97.0	-1.3	98.0
COc1cc(C(=O)NCc2cccc3ccccc23)ccc1OCc1ccccc1	100.0	8	100.0	101.0	100.0	98.0	14.5	101.0
Cc1ccc(NC2c3ncccc3C(=O)N2Cc2cccs2)cc1C (configuration not stated)	93.0	20	91.0	96.0	91.0	92.0	-8.0	94.0
Cc1cc(C)cc(Nc2nc3c(S(=O)(=O)c4ccccc4)nnn3c3ccccc23)c1	104.0	12	104.0	102.0	104.0	102.0	-12.9	101.0
COc1cc(NC(=O)COc2ccc(-n3cnnn3)cc2)c(OC)cc1Cl	94.0	11	93.0	94.0	90.0	92.0	0.2	94.0
Cc1ccc(/C=N/Nc2nc(N3CCOCC3)nc(N3CCOCC3)n2)o1	98.0	9	103.0	98.0	100.0	97.0	4.3	101.0
CC(C)NC(=O)CC(=O)NN=C1CCCCC1	96.0	11	95.0	99.0	101.0	99.0	1.8	97.0
CCc1cc(C(c2ccccn2)N2CCN(C)CC2)c(NC(=O)c2ccccc2)s1 (configuration not stated)	100.0	7	97.0	105.0	106.0	99.0	13.1	101.0
CCCCCCOc1ccc(NC(=O)CC2C(=O)N(CC)C(=S)N2Cc2ccco2)cc1 (configuration not stated)	100.0	12	100.0	98.0	101.0	101.0	15.6	100.0
CCCCN(C)CCNC(=O)c1nn(-c2ccc(OC)cc2)c(=O)c2c1c1ccccc1n2C	96.0	7	93.0	100.0	96.0	100.0	-4.6	98.0
O=C(CSc1ccc(Cl)cc1)c1ccco1	100.0	7	98.0	101.0	99.0	96.0	nt	100.0
CN1CCN(c2ccc(S(=O)(=O)N3CCCCC3)cc2NC(=O)c2cccc([N+](=O)[O-])c2)CC1	95.0	11	93.0	99.0	101.0	98.0	-5.0	98.0
O=[N+]([O-])c1cc(C(F)(F)F)ccc1NCCOc1ccccc1	101.0	4	102.0	100.0	101.0	96.0	6.7	100.0
O=C(Nc1c(C(=O)NCc2ccco2)cnn1-c1ccccc1)c1ccc(F)cc1	105.0	11	104.0	107.0	112.0	101.0	nt	105.0
N#CCCN(CCC#N)C(=O)c1ccc2c(c1)OCO2	96.0	9	93.0	97.0	94.0	96.0	-10.4	97.0
CCSc1nnc(NC(=O)C(C(F)(F)F)C(F)(F)F)s1	91.0	17	93.0	94.0	95.0	91.0	-0.5	94.0
CCC(C)c1ccc(NC(=S)NCc2ccccc2OC)cc1 (configuration not stated)	99.0	10	101.0	98.0	100.0	97.0	-0.5	99.0
CCOc1cc(/C=N\NC(=O)CN2CCOCC2)ccc1OCc1ccc(F)cc1	96.0	13	94.0	100.0	105.0	101.0	21.6	98.0
CCOC(=O)N1CCC(NCCNC(=O)c2ccco2)CC1	100.0	12	103.0	100.0	97.0	95.0	-29.8	99.0
C=CCn1c(COc2ccccc2)nnc1SCC(=O)Nc1ccc(S(N)(=O)=O)cc1	96.0	14	95.0	96.0	95.0	93.0	-0.8	96.0
COc1ccc2cc3cc(C(=O)NCCCN4CCc5ccccc5C4)sc3nc2c1	98.0	3	102.0	97.0	100.0	95.0	3.9	97.0
CCc1ccccc1N/N=C(/C)c1c(O)cc(C)oc1=O	98.0	10	106.0	94.0	96.0	95.0	-0.8	98.0
Cn1c(-c2ccc3c(c2)OCO3)cnc1NC(=O)CCC(=O)NCCc1ccccc1	94.0	10	96.0	93.0	93.0	95.0	nt	96.0
Cc1ccc([N+](=O)[O-])cc1-c1ccc2cccc(C)c2n1	100.0	5	97.0	101.0	104.0	99.0	nt	103.0
Cc1ccc(NC2=C(Cl)C(=O)OC2OC(C)C)c(C)c1 (configuration not stated)	97.0	19	99.0	103.0	104.0	98.0	nt	99.0
COc1ccc2cc3cc(C(=O)Nc4ccc5c(c4)OCO5)oc3nc2c1	98.0	33	97.0	100.0	101.0	100.0	nt	99.0
O=C(Nc1ccc(F)cc1F)c1csc(-c2cccs2)n1	94.0	13	103.0	94.0	96.0	93.0	-16.7	96.0
C/C(=N\NC(=O)c1ccccc1C)c1ccc(NC(=O)c2cccs2)cc1	93.0	10	94.0	95.0	96.0	92.0	nt	94.0
O=C(c1ccc2c(c1)OCO2)N1CCN=C1SCc1ccccc1	106.0	8	100.0	105.0	108.0	101.0	nt	103.0
O=C(CCc1ccc(S(=O)(=O)NC2CCCCC2)cc1)N(Cc1ccccc1)Cc1ccccc1	99.0	12	100.0	101.0	102.0	99.0	nt	100.0
CN1C(=O)C(CC(=O)Nc2ccc(F)cc2)N(Cc2ccco2)C1=S (configuration not stated)	96.0	9	96.0	94.0	97.0	95.0	nt	96.0
Nc1c(C(=O)Nc2ccccc2)sc2nc(-c3cccnc3)ccc12	nt	9	nt	nt	nt	nt	-7.1	nt
COc1ccc(C(C#N)Nc2ccccc2OC)cc1 (configuration not stated)	95.0	30	94.0	95.0	92.0	91.0	4.4	95.0
Nc1c(C(=O)Nc2ccc(S(=O)(=O)N3CCCC3)cc2)sc2nc3cc4c(cc3cc12)CCC4	105.0	12	104.0	105.0	110.0	105.0	-24.1	105.0

Following part:
SMILES	Rab2 wt GTP	Avidin bead fluor	Rab7 wt modul	Cdc42 wt	Rac1 wt modul	Rac1 mut GTP	Pf gamet viab	HRas wt GTP
O=C(Nc1cccnc1)c1sc(Nc2ccccc2F)nc1-c1ccccc1	94.0	6	98.0	94.0	97.0	96.0	8.6	98.0
CCOC(=O)c1cc2nc(Nc3ccc(OC)cc3)sc2s1	96.0	27	96.0	95.0	96.0	95.0	nt	95.0
CC(=O)Nc1ccc(S(=O)(=O)Nc2nnc(C(C)(C)C)s2)cc1	103.0	12	105.0	103.0	105.0	99.0	-21.3	103.0
CCn1cc(/C=N/NC(=O)COc2cccc3cccnc23)c2ccccc21	98.0	9	95.0	98.0	106.0	99.0	18.5	100.0
CC1=N/C(=C\c2ccc(OC(C)C)cc2)C(=O)N1c1ccc(C(=O)O)cc1	96.0	16	101.0	102.0	101.0	99.0	15.1	99.0
Cc1ccc(Nc2nc(N)nc(CSc3ncccn3)n2)cc1	99.0	13	102.0	100.0	99.0	99.0	-19.1	101.0
CC(=O)N1N=C2c3ccccc3CCC2C1c1cccs1 (configuration not stated)	nt	6	nt	nt	nt	nt	22.1	nt
Cc1ccsc1-c1nc(C(N)=O)c2[nH]c(=O)n(-c3ccc(Cl)cc3)c2n1	89.0	6	98.0	92.0	89.0	94.0	nt	90.0
Cc1ccc(-c2cc(C(=O)N/N=C/c3c(C)nn(C)c3C)c3ccccc3n2)cc1C	99.0	12	100.0	98.0	106.0	100.0	-11.5	100.0
COCCCn1c(=N)c(C(=O)NCC2CCCO2)cc2c(=O)n3ccccc3nc21 (configuration not stated)	95.0	18	99.0	92.0	86.0	95.0	nt	92.0
O=C(COc1ccccc1)NC(=S)Nc1ccc2c3c(cccc13)CC2	96.0	18	97.0	93.0	99.0	93.0	14.0	96.0
O=C(N/N=C/c1ccc(-c2cccc([N+](=O)[O-])c2)o1)c1cccs1	98.0	11	98.0	100.0	99.0	98.0	-0.2	98.0
CC1=C(C(=O)Nc2ccccc2)C(c2cccnc2)n2nc(-c3cccnc3)nc2N1 (configuration not stated)	101.0	10	102.0	101.0	107.0	100.0	-43.1	101.0
Cc1nc(-c2ccncc2)sc1C(=O)Nc1ccc(Br)cc1	93.0	5	100.0	89.0	92.0	89.0	16.8	95.0
O=C(CNc1ccc(C(F)(F)F)cc1[N+](=O)[O-])OCC(=O)c1ccccc1	94.0	13	97.0	95.0	96.0	94.0	-32.1	96.0
CCOC(=O)c1c(NC(=O)CN2CCCc3ccccc32)sc(C(C)=O)c1C	98.0	20	100.0	100.0	102.0	98.0	5.5	99.0
CC(C)(C)NC(=O)c1ccc2c3c(cccc13)CC2	100.0	9	94.0	102.0	95.0	96.0	24.8	92.0
O=C(O)c1ccc2c(=O)[nH]c(CN3CCOCC3)nc2c1	?	62*	?	?	?	?	nt	?
CN1CCN(c2ccc(C(=O)NC3CCCCC3)cc2[N+](=O)[O-])CC1	97.0	6	94.0	96.0	96.0	97.0	1.0	96.0
Nc1c(C(=O)Nc2cccc(Cl)c2Cl)sc2nc(-c3cccnc3)ccc12	99.0	13	102.0	98.0	101.0	101.0	-12.3	97.0
Cc1[nH]c(=O)[nH]c(=O)c1S(=O)(=O)NCCOC12CC3CC(CC(C3)C1)C2	98.0	11	98.0	102.0	100.0	97.0	-0.3	100.0
O=c1oc2ccccc2cc1-c1csc(Nc2nc3ccc(F)cc3s2)n1	99.0	13	101.0	103.0	104.0	101.0	nt	101.0
CCOC(=O)C1=C(C)Nc2nnnn2C1c1cccnc1 (configuration not stated)	101.0	13	102.0	99.0	103.0	100.0	nt	101.0
CC1CC(C(F)F)n2nc(C(=O)Nc3sc4c(c3C#N)CCC(C(C)(C)C)C4)nc2N1 (configuration not stated)	98.0	8	100.0	100.0	103.0	97.0	nt	100.0
Fc1ccc(Nc2nc(-c3ccncc3)nc3ccccc23)cc1F	100.0	11	101.0	103.0	104.0	97.0	nt	100.0

Pulled by structure from above, 2 records:
SMILES	Rab2 wt GTP	Avidin bead fluor	Rab7 wt modul	Cdc42 wt	Rac1 wt modul	Rac1 mut GTP	Pf gamet viab	HRas wt GTP
Fc1ccc(Nc2nc(-c3ccncc3)nc3ccccc23)cc1F	100.0	11	101.0	103.0	104.0	97.0	nt	100.0
CCOC(=O)C1=C(C)Nc2nnnn2C1c1cccnc1 (configuration not stated)	101.0	13	102.0	99.0	103.0	100.0	nt	101.0

Bioassay records: PubChem BioAssay, several laboratories
